Cruzain noTriton = cruzain (T. cruzi) inhibition without detergent | 200,000 compounds, 2.3% hits | purified cruzain, Z-FR-AMC fluorescence, no detergent | Potency, µM, without a hit: max response, negative = inhibition, hits mostly inhibitors | AID 1476; active means well fitted curve in the direction sought with a large enough effect; inconclusive means small, poorly fitted or top-dose-only effect, or another doubt; inactive means no such curve, though single readings can be large; an effect the other way counts as inactive or inconclusive;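 further: plate controls were enzyme without inhibitor for no effect and buffer without enzyme for full effect; nearly all actives have a fitted effect of over 40% in size; top concentration of the series not given in the record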
Target sequence (P25779 123-467 limits assumed): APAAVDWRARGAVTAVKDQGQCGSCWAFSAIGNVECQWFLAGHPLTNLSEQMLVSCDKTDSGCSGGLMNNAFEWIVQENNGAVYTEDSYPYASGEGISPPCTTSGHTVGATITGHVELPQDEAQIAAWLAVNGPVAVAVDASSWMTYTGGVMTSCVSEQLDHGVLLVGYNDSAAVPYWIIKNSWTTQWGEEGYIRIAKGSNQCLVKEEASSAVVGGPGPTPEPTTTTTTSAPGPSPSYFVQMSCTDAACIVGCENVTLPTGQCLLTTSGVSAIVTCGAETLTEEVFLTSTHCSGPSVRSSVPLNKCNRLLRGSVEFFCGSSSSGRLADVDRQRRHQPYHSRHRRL
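Purified cruzain at 1.5 nM, pre-incubated 15 min with compound at room temperature in 100 mM sodium acetate pH 5.5, 5 mM DTT, 0.00005% Triton X-100. Reaction started with 2 uM Z-FR-AMC; AMC fluorescence increase over 60 s gives rate.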
2A StopGo = lowers the luciferase signal of an FMDV 2A StopGo reporter | human cells with a luciferase reporter of 2A StopGo recoding; control for the full effect not named in the record | Potency, µM (titrated, usually from 57.9 µM), inactives show at the top dose signal change, negative = less light | 410,000 compounds, 1.2% hits | AID 1159524; active = well fitted falling curve with a large enough effect; inconclusive = small, poorly fitted or top-dose-only effect; inactive = no such curve, though single readings can be large or run the other way; tested in HEK293T cells; further: on the % scale 0 is the no-effect control and ±100 the full control effect; nearly all actives have a fitted effect of over 45% in size; luciferase light after 4 h
LASV entry inh = inhibitors of Lassa virus binding or cell entry | 300,000 compounds, 1.2% hits | AID 540256 | Potency, µM (titrated, usually from 37.9 µM), without a hit: at the top dose activity change, negative = inhibition, most hits filed as inhibitors | Lassa virus pseudotype entry inhibition, cell reporter; control for the full effect not named in the record; active means well fitted inhibition curve with a large enough effect; inconclusive means small, poorly fitted or top-dose-only effect, or effect the other way; inactive means flat fitted curve, though single readings scatter; tested in HEK293 cells; further: on the % scale 0 is the no-effect control and ±100 the full control effect; nearly all actives have a fitted effect of over 50% in size; luciferase read-out
NS1 function inh = influenza NS1 inhibition | S. cerevisiae slowed by influenza A NS1, growth recovery by OD600 | Potency, µM (titrated, usually from 46.1 µM), without a hit: at the highest dose activity, positive = more growth | 270,000 compounds, 0.4% hits; further: actives are rising curves; nearly all actives have a fitted effect of over 50% in size
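Recovery from NS1-induced slow growth read by OD600 in budding yeast switched to galactose assay medium (pH 6.0, -URA) at 1:100 dilution. Compound 23 nl per well; the matching strain lacking NS1 serves as control.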
SARS PLP yeast = blocks SARS-CoV papain-like protease in a yeast assay | S. cerevisiae expressing SARS-CoV PLpro, growth rescue; control for the full effect not named in the record | Potency, µM (series often up to 32.9 µM), inactives show at the highest dose activity, positive = growth rescue | 330,000 compounds, 0.19% hits; further: 0% is about no effect; nearly all actives have a fitted effect of over 55% in size; growth read by luminescence after 48 h
Marburg entry inh = blocks Marburg virus binding to or entry into cells; Marburg virus pseudotyped entry inhibition, cell reporter; control for the full effect not named in the record; about a third of the inactives were read at about 46 µM; Potency, µM (doses to about 37.8 µM), inactives show top-dose activity change, negative = inhibition, most hits filed as inhibitors; 300,000 compounds, 1.8% hits; AID 540276; active = well fitted inhibition curve with a large enough effect; inconclusive = small, poorly fitted or top-dose-only effect, or effect the other way; inactive = flat fitted curve, though single readings scatter; tested in HEK293 cells; about a fifth of its hits are not listed in these tables; further: on the % scale 0 is the no-effect control and ±100 the full control effect; luciferase read-out
Cruzain Triton = cruzain (T. cruzi) inhibition with detergent; purified cruzain, Z-FR-AMC fluorescence, 0.01% Triton; Potency, µM, without a hit: max response, negative = inhibition, hits mostly inhibitors; 200,000 compounds, 0.43% hits; active means well fitted curve in the direction sought with a large enough effect; inconclusive means small, poorly fitted or top-dose-only effect, or another doubt; inactive means no such curve, though single readings can be large; an effect the other way counts as inactive or inconclusive;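 further: plate controls were neutral wells for no effect and buffer without enzyme for full effect; nearly all actives have a fitted effect of over 40% in size; top concentration of the series not given in the record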
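Enzyme 1.5 nM, Z-FR-AMC 2 uM, NaOAc 100 mM pH 5.5, DTT 5 mM, Triton X-100 0.01%; 15 min RT compound preincubation; kinetic ex360/em450, 60 s delta.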
RE007 growth inh = less growth of the S. pombe RE007 Vpr strain; S. pombe RE007 Vpr strain, BacTiter-Glo ATP luminescence, 24 h; control for the full effect not named in the record; AID 651644; Potency, µM (top dose mostly 92.2 µM), inactives show at the highest dose activity change, negative = less growth; 360,000 compounds, 0.21% hits; active = well fitted falling curve with a large enough effect; inconclusive = small, poorly fitted or top-dose-only effect; inactive = no such curve, though single readings can be large or run the other way;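 further: on the % scale 0 is the no-effect control and ±100 the full control effect; nearly all actives have a fitted effect of over 50% in size; the assay follows cell death caused by Vpr and the record does not say whether a fall means rescue or toxicity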
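Fission yeast strain RE007, carrying one chromosomally integrated HIV-1 vpr copy, was seeded at OD 0.01 in PMG+AL medium with 23 nL pinned compound. After 24 h at 30 °C and 99% humidity, viability was read by BacTiter-Glo luminescence.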
The depositor's hits bear a star; u = inconclusive; x = not tested or not shown; & = joins results of further samples; [ ] = another dose, or the depositor's remark. Unless noted, the call rests on the fitted dose curve; in most records, active means well fitted rising curve with a large enough effect; inconclusive means small, poorly fitted or top-dose-only effect; inactive means no such curve, though single readings can be large or run the other way. Potency means the concentration at half of the fitted maximal effect.

SMILES	Cruzain noTriton	2A StopGo	LASV entry inh	NS1 function inh	SARS PLP yeast	Marburg entry inh	Cruzain Triton	RE007 growth inh
CC(Sc1ccc(Cl)cc1)C(=O)N(C)CC(=O)Nc1ccc(N2CCOCC2)cc1 (stereo not drawn)	x	-25%	5%	x	-4%	-13%[46.1 µM]	x	1%
CC(C)CCNC(=O)C1CCN(S(=O)(=O)c2ccc3c(c2)CCC(=O)N3)CC1	-1%	-26%	x	-7%	0%	x	-10%	13%
OCCC1CN(Cc2cccc3nccnc23)CCN1Cc1ccc(F)cc1 (stereo not drawn)	x	u	x	-1%	2%	x	x	-5%
CCNC(=O)C1CCN(S(=O)(=O)c2ccc3c(c2)CCCN3C(C)=O)CC1	-3%	-12%	16%[46.1 µM]	x	x	x	1.4%	x
O=C(/C=C/c1ccc2c(c1)OCO2)Nc1nc2ccc(F)cc2s1	x	15%	x	0%	1%	x	x	46%
CC(C)[C@H](NC(=O)N1c2ccccc2NC(=O)[C@@H]1C(C)C)C(=O)N[C@H](Cc1ccccc1)C(=O)O	x	-1%	x	16%	u	x	x	10%
CN(c1ccc(OCC(=O)N2CCOCC2)cc1)S(=O)(=O)c1ccc(F)cc1	x	0%	10%[46.1 µM]	x	0%	0%[46.1 µM]	x	11%
COc1ccc(CNCc2c(C(=O)O)c(C)n(Cc3ccc(Cl)cc3)c2C)c(OC)c1	2%	-24%	-14%[46.1 µM]	x	x	-15%[46.1 µM]	-2.3%	x
CC(Oc1ccccc1Cl)C(=O)Nc1ccc(S(=O)(=O)N2CCCC2)cc1 (stereo not drawn)	x	-8%	u	x	4%	u	x	15%
CCC1CCCCN1CCCNC(=O)Cn1ncc2c(C)n(Cc3ccccc3Cl)c(C)c2c1=O (stereo not drawn)	x	3%	x	20%	2%	x	x	-10%
S=C(Nc1ccc(Br)cc1Cl)NN1CCOCC1	x	26%	17%	1%	0%	10%	x	-4%
Cc1cc(C(=O)N/N=C/c2ccc([N+](=O)[O-])cc2)c(C)o1	x	33%[activator]	8%	0%	-1%	-8%[46.1 µM]	x	-5%
CCOc1cccc(/C=N/Nc2nc(N3CCCC3)nc(N3CCCC3)n2)c1O	x	-24%	x	11%	0%	x	x	0%
O=C(Nn1cnc2ccccc2c1=O)c1ccccc1Cl	9%	x	11%	-3%	-4%	29%	3.3%	0%
CCOc1ccc(S(=O)(=O)N2CCN(C)CC2)c(C)c1C	9%	0%	-18%	-7%	-1%	-15%	4.5%	8%
O=C(CCCC(=O)N1CCN(c2ccc([N+](=O)[O-])cc2)CC1)c1ccccc1	3%	u	-1%	-4%	-6%	u	-13%	-6%
COc1ccccc1COCC(O)CN1CCCCC1CO (stereo not drawn)	x	-3%	x	-4%	2%	x	x	-3%
COCCCN1C(=O)C(=O)/C(=C(/O)c2ccc(OC)cc2)C12C(=O)N(C)c1ccccc12 (stereo not drawn)	x	10%	x	0%	0%	x	x	14%
Cc1ccc(C)c(NC(=O)CSc2nnc(-c3ccccc3C)o2)c1	11%	4%	8%	-9%	5%	21%	-0.6%	8%
CCS(=O)(=O)c1nc(S(=O)(=O)c2ccc(Cl)cc2)c(NCCCN2CCCC2=O)s1	x	16%	x	-9%	3%	x	x	-14%
Cc1ccc(CCNC(=O)C(C)n2nc(C)c3c(C)n(-c4ccccc4)nc3c2=O)cc1 (stereo not drawn)	x	10%	3%[46.1 µM]	10%	-8%	9%[46.1 µM]	x	-2%
O=C(NCCS(=O)(=O)N1CCCCC1)c1ccc2c(c1)OCO2	x	25%	-13%	x	0%	-21%	x	15%
CCC(=O)Nc1cccc(-c2nnc(SCC(=O)NCc3ccco3)n2C)c1	6%	2%	1%	-2%	-3%	u	4.3%	-15%
O=C(C1CC1)N(CCc1ccccc1)Cc1nc2ccccc2c(=O)[nH]1	2%	28µM*	-28%	1%	-2%	4%	3.7%	-1%
O=c1[nH]c(-c2ccco2)nc2sc3c(c12)CCCC3	-17%	-6%	u	-26%	-54%	u	-5.1%	x
CCN(CC)c1ccc(/C=N/NC(=O)CNC(=O)/C=C/c2ccco2)cc1	x	20%	-25%[46.1 µM]	-24%	-2%	u	x	8%
COc1ccc(Oc2cn[nH]c2-c2ccc(OCC(=O)NN)cc2O)cc1	x	-18%	x	u	-3%	x	x	3%
Cc1ccc(O)c(C(CC(=O)NCC2(c3ccccc3)CCCC2)c2ccccc2)c1 (stereo not drawn)	-11%	u	u	x	x	u	-7.5%	x
C=CCn1c(O)c(C(C)=NCCc2ccccc2)c(=O)[nH]c1=O	-4%	-10%	-5%	5%	18%	1%	1.5%	27%
Cc1ccc(C)c(CNC(=O)c2cnc3sc(N4CCCC4)nn3c2=O)c1	-2%	-17%	x	x	x	-1%[46.1 µM]	-2.9%	x
Cc1onc(-c2c(F)cccc2Cl)c1C(=O)O/N=C(\N)c1ccc([N+](=O)[O-])o1	x	49%[activator]	-1%	-9%	-6%	-2%[46.1 µM]	x	-21%
COc1cc([C@@H]2[C@H]3CN(C)CC=C3C(C#N)=C(N)C2(C#N)C#N)cc2c1OCO2	0%	-21%&-13%	-3%&-7%	11%	-8%	10%&-12%	-6.4%	5%&1%
Cc1ccccc1Nc1nn2c(=O)c3ccc(C(=O)NCc4ccccc4)cc3nc2s1	-4%	-19%	-16%[46.1 µM]	x	x	x	-4.0%	x
COc1ccccc1NC(=O)C(C)OC(=O)c1cccc(-n2cnnn2)c1 (stereo not drawn)	x	-25%	-21%	x	3%	-1%[46.1 µM]	x	-14%
S=C1NC[C@H](Cc2ccccc2)N1CCCCC1CCCCC1	x	28%	x	4%	-2%	x	x	12%
COc1ccc(CCNC(=O)C(=O)NCC(c2ccco2)S(=O)(=O)c2cccs2)cc1 (stereo not drawn)	-19%	-5%	u	x	x	x	-1.2%	x
COC(=O)Nc1ccc(Oc2ccccc2)cc1	8%	19%	-1%	-43%	-11%	6%	-3.5%	10%
O=C(NCc1cccc(C(F)(F)F)c1)C1CC(c2ccccc2[N+](=O)[O-])=NO1 (stereo not drawn)	-3%	11%	x	-3%	-2%	3%	-9.1%	19%
CC(=O)Nc1c2c(nn1-c1ccc(Cl)cc1)CSC2	x	-13%	x	3%	-9%	x	x	16%
O=C(NC(=S)Nc1ccccc1O)c1cncc(Br)c1	x	31%[activator]	-23%	x	x	-5%	x	-15%
CC1=C(C#N)C(c2ccc(O)cc2)C2=C(CC(C)(C)CC2=O)N1 (stereo not drawn)	2%	-13%	10%	18%	-4%	3%	-3.1%	-2%
CCCC[n+]1cc(/N=C(\[O-])OC)on1	8%	11%	-2%	11%	-2%	6%[46.1 µM]	-1.7%	15%
CN(CC(=O)NCCc1ccc(S(N)(=O)=O)cc1)S(=O)(=O)c1ccc(Br)s1	x	7%	1%	-14%	-1%	12%[46.1 µM]	x	-2%
O=[N+]([O-])c1ccccc1C=NNc1ccccc1	x	18%	-11%[46.1 µM]	x	x	u	x	34%
CC1CC(C)CN(CCCNC(=O)C2CCN(c3nnc(-n4cccc4)s3)CC2)C1 (stereo not drawn)	x	-13%	x	4%	1%	x	x	-12%
CCN(CC(=O)NCc1ccc(Cl)cc1)C(=O)NCc1ccc(Cl)cc1	x	-25%	5%	12%	5%	u	x	9%
COc1ccc(C2CC(c3ccc(F)cc3)Nc3nc(N)nn32)cc1OC (stereo not drawn)	6%	-18%	x	11%	6%	x	2.8%	-8%
O=C(Nc1nc(-c2ccccc2)c(-c2ccccc2)o1)c1ccc(F)cc1	2%	-11%	-11%	-68%	-21%	10µM*	-2.1%	-15%
Cc1nn2c3c(cnc2c1-c1ccccc1)C(=O)CC(c1ccco1)C3 (stereo not drawn)	-3%	-9%	15%	1%	0%	14%	-3.3%	-2%
CCCCCCCc1c(C)nc(N2CCOCC2)[nH]c1=O	-8%	1%	u	3%	-6%	2%	-2.8%	-13%
CC(=O)Nc1ccc(-c2cc(-c3ccc(NC(C)=O)cc3)nc(-c3ccccc3)n2)cc1	16µM*	x	5%	3%	-14%	8%	-4.5%	-3%
Oc1c(Br)cc(/C=N/NC(=S)NCc2ccco2)cc1Br	x	0%	-11%[46.1 µM]	-8%	-2%	-13%[46.1 µM]	x	-5%
COc1cc2cc(CNc3ccc(C)cc3)c(=O)n(CC(=O)Nc3ccc(F)cc3F)c2cc1OC	11%	47%[activator]	29%[46.1 µM]	x	x	x	-3.1%	x
CCOC(=O)CN1C(=O)CC(c2ccccc2)C1=O (stereo not drawn)	x	8%	10%	-3%	-1%	1%	x	1%
O=C(Nc1cnn(C23CC4CC(CC(C4)C2)C3)c1)c1cnn2cccnc12	u	39%[activator]	u	-33%	-1%	-10%	-0.9%	14%
COc1cccc(-c2nc(CCl)cs2)c1OC	x	11%	6%	x	0%	24%[46.1 µM]	x	1%
O=C(OC1CCOC1=O)c1cc(-c2cccc(Br)c2)nc2ccccc12 (stereo not drawn)	x	17%	8%	x	-2%	26%[46.1 µM]	x	-18%
CC(=O)c1ccc(N2CCN(C(=O)Cc3n[nH]c(=O)c4ccccc34)CC2)cc1	x	-3%	12%	x	0%	5%	x	10%
CS(=O)(=O)N1CCN(c2ccccc2NC(=S)NC(=O)c2ccccc2[N+](=O)[O-])CC1	x	-24%	-7%	3%	0%	-19%[46.1 µM]	x	-17%
C[C@@]12CCC=C[C@H]1[C@H](c1ccoc1)N(Cc1ccccc1)C2=O	x	-7%	x	-5%	-3%	x	x	-3%
Cc1cc(C)nc(N2CCN(C(=O)CCC(=O)Nc3nnc(C(C)C)s3)CC2)n1	x	10%	3%	1%	-1%	3%[46.1 µM]	x	-9%
O=C1C(=O)N(CC2COc3ccccc3O2)c2ccccc21 (stereo not drawn)	x	-26%	x	-56%	-10%	x	x	7%
CCc1nnc2n1N=C(c1ccc(Br)cc1)CS2	x	-27%	x	-2%	1%	x	x	-6%
